Lassa entry inh = qHTS for Inhibitors of binding or entry into cells for Lassa Virus; Lassa virus pseudotype entry inhibition, cell reporter; control for the full effect not named in the record; Potency, µM (top dose mostly 37.9 µM), for inactives: at the top dose activity change, negative = inhibition, actives largely listed as inhibitors; 300,000 tested, 1.2% active; AID 540256, 2011; active means well fitted inhibition curve with a large enough effect; inconclusive means small, poorly fitted or top-dose-only effect, or effect the other way; inactive means flat fitted curve, though single readings scatter; tested in HEK293 cells; also: % is scaled to controls: 0 for no effect and ±100 for the full control effect; nearly all actives have a fitted effect of over 50% in size; luciferase read-out
Marburg entry inh = qHTS for inhibitors of binding or entry into cells for Marburg Virus | Marburg virus pseudotyped entry inhibition, cell reporter; control for the full effect not named in the record; about a third of the inactives were read at about 46 µM | AID 540276, 2011 | 300,000 tested, 1.8% active | Potency, µM (titrated, usually from 37.8 µM), inactives show at the highest dose activity change, negative = inhibition, usual class: inhibitors; active = well fitted inhibition curve with a large enough effect; inconclusive = small, poorly fitted or top-dose-only effect, or effect the other way; inactive = flat fitted curve, though single readings scatter; tested in HEK293 cells; about a fifth of its hits are not listed in these tables; also: % is scaled to controls: 0 for no effect and ±100 for the full control effect; luciferase read-out
StopGo reporter = High Throughput Screening for Foot and Mouth Disease Virus Antivirals. human cells with a luciferase reporter of 2A StopGo recoding; control for the full effect not named in the record. Potency, µM (doses to about 57.9 µM), for inactives: at the highest dose signal change, negative = less light. 410,000 tested, 1.2% active; active = well fitted falling curve with a large enough effect; inconclusive = small, poorly fitted or top-dose-only effect; inactive = no such curve, though single readings can be large or run the other way; tested in HEK293T cells; also: % is scaled to controls: 0 for no effect and ±100 for the full control effect; nearly all actives have a fitted effect of over 45% in size; luciferase light after 4 h
Cruzain noTriton = qHTS Assay for Promiscuous and Specific Inhibitors of Cruzain (without detergent). Cruzipain (Trypanosoma cruzi), P25779. purified cruzain, Z-FR-AMC fluorescence, no detergent. Potency, µM, inactives show max response, negative = inhibition, actives largely listed as inhibitors. 200,000 tested, 2.3% active. AID 1476, 2009;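 also: plate controls were enzyme without inhibitor for no effect and buffer without enzyme for full effect; nearly all actives have a fitted effect of over 40% in size; top concentration of the series not given in the record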
Target sequence (P25779 123-467 limits assumed): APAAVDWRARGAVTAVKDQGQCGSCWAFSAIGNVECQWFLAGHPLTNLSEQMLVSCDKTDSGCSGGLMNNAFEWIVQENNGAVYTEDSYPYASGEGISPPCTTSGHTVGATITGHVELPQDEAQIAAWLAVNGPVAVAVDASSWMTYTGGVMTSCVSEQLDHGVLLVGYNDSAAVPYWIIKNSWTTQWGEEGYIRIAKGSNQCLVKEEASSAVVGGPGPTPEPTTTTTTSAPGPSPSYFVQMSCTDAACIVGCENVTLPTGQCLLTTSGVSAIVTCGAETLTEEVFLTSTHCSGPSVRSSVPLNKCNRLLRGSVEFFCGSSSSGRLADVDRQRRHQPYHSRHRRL
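Detergent-free condition (0.00005% Triton X-100) in acetate buffer pH 5.5 with DTT. 1.5 nM enzyme and compound were pre-mixed 15 min, then 2 uM Z-FR-AMC substrate added; reaction progress from fluorescence change between first and third reads (60 s).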
SARS PLP yeast = qHTS of Yeast-based Assay for SARS-CoV PLP; AID 485353, 2010; Potency, µM (highest dose often 32.9 µM), for the others: at the top dose activity, positive = growth rescue; 330,000 tested, 0.19% active; S. cerevisiae expressing SARS-CoV PLpro, growth rescue; control for the full effect not named in the record; active means well fitted rising curve with a large enough effect; inconclusive means small, poorly fitted or top-dose-only effect; inactive means no such curve, though single readings can be large or run the other way; also: 0% is about no effect; nearly all actives have a fitted effect of over 55% in size; growth read by luminescence after 48 h
RE007 growth inh = qHTS Assay for Inhibitors of the HIV-1 protein Vpr; Potency, µM (highest dose often 92.2 µM), for inactives: at the top dose activity change, negative = less growth; AID 651644, 2012; 360,000 tested, 0.21% active; S. pombe RE007 Vpr strain, BacTiter-Glo ATP luminescence, 24 h; control for the full effect not named in the record; active = well fitted falling curve with a large enough effect; inconclusive = small, poorly fitted or top-dose-only effect; inactive = no such curve, though single readings can be large or run the other way;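 also: % is scaled to controls: 0 for no effect and ±100 for the full control effect; nearly all actives have a fitted effect of over 50% in size; the assay follows cell death caused by Vpr and the record does not say whether a fall means rescue or toxicity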
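Fission yeast strain RE007, carrying one chromosomally integrated HIV-1 vpr copy, was seeded at OD 0.01 in PMG+AL medium with 23 nL pinned compound. After 24 h at 30 °C and 99% humidity, viability was read by BacTiter-Glo luminescence.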
Cruzain inh Det = qHTS Assay for Promiscuous and Specific Inhibitors of Cruzain (with detergent) | Potency, µM, for inactives: max response, negative = inhibition, hits mostly inhibitors | AID 1478, 2009 | purified cruzain, Z-FR-AMC fluorescence, 0.01% Triton | Cruzipain (Trypanosoma cruzi), P25779 | 200,000 tested, 0.43% active;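 also: plate controls were neutral wells for no effect and buffer without enzyme for full effect; nearly all actives have a fitted effect of over 40% in size; top concentration of the series not given in the record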
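15 min RT preincubation of 1.5 nM cruzain with compound, then 2 uM Z-FR-AMC added; kinetic AMC fluorescence, 60 s delta. Triton X-100 0.01%, pH 5.5.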
NS1 inh = qHTS Assay for Inhibitors of Influenza NS1 Protein Function; 270,000 tested, 0.4% active; S. cerevisiae slowed by influenza A NS1, growth recovery by OD600; Potency, µM (series often up to 46.1 µM), for inactives: at the top dose activity, positive = more growth; AID 2326, 2010; active means well fitted rising curve with a large enough effect; inconclusive means small, poorly fitted or top-dose-only effect; inactive means no such curve, though single readings can be large or run the other way; also: nearly all actives have a fitted effect of over 50% in size
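Read-out: OD600 growth recovery of NS1-expressing budding yeast. Cells grown overnight at 30C in -URA glucose medium, washed, resuspended and diluted 1:100 in 2% galactose assay medium, pH 6.0. Same strain lacking NS1 served as positive control.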
* marks the source's active call; other numbers are inactive results; u = inconclusive; x = not tested or not shown; & = joins results of further samples; [ ] = dose if it differs, or a comment. Unless noted, calls follow the shape of the dose curve; as a rule, active = well fitted curve in the direction sought with a large enough effect; inconclusive = small, poorly fitted or top-dose-only effect, or another doubt; inactive = no such curve, though single readings can be large; an effect the other way counts as inactive or inconclusive. Potency is read from the fitted curve at half-maximal effect.

Second line of a record: Lassa entry inh	Marburg entry inh	StopGo reporter	Cruzain noTriton	SARS PLP yeast	RE007 growth inh	Cruzain inh Det	NS1 inh
- COc1cc(CNn2nnnc2N)ccc1OCC(=O)NC(C)(C)C
  1%	19%	11%	10%	7%	5%	3.0%	6%
- Cc1cc2nc(C)n(CCCNC(=O)Nc3cccc4ccccc34)c2cc1C
  u	-13%	-23%	-2%	3%	18%	-6.6%	0%
- CCOc1ccc2c(c1)c(N=Nc1cccc(C(=O)O)c1)c(O)n2C
  u	u	36%[activator]	-4%	1%	x	-5.3%	6%
- O=C(Nc1cccc(NC(=O)c2ccccc2Cl)c1)c1ccco1
  3%[46.1 µM]	21%[46.1 µM]	-1%	x	-2%	17%	x	14%
- O=S(=O)(Nc1ccc(Cc2ccncc2)cc1)c1ccc(Cl)s1
  -7%	u	-20%	-10%	-3%	-7%	-6.2%	-1%
- Cc1ccc(C(=O)n2cnc3ccccc32)cc1C
  10%[46.1 µM]	13%[46.1 µM]	28%	x	3%	2%	x	-3%
- COC(=O)c1cc(NCc2c(F)cccc2Cl)ccc1N1CCOCC1
  -35%	5%	-20%	8%	1%	-5%	-1.2%	-13%
- O=C(NC(C(=O)O)c1ccccc1)c1ccc(S(=O)(=O)N2CCOCC2)cc1 (stereo not given)
  -22%[14.3 µM]	0%	2%	-9%	4%	-13%	-1.0%	15%
- COc1ccc(/C(O)=C/Sc2nnc(Cc3ccccc3)o2)cc1
  -13%	-24%	u	2%	1%	-25%	-11%	u
- CCc1cccc(NC(=O)C(CC)n2nc(C)c3sc4ccccc4c3c2=O)c1 (stereo not given)
  -1%[46.1 µM]	u	-21%	-4%	x	x	-6.6%	x
- CCc1nnc(NC(=O)CSc2nnc(-c3cc4ccccc4cc3O)n2CCOC)s1
  -3%	2%&2%	9%	-2%	3%	21%	1.5%	-6%
- COc1ccc(NC2=Nc3ccccc3N3C2=Nc2c(c(C)nn2-c2ccc(C)cc2)C3c2cccnc2)cc1 (stereo not given)
  u	3%	-13%	7%	-8%	13%	0.4%	9%
- Cc1cccc2sc(NC(=O)C3CCCN(S(=O)(=O)c4cccc5nonc45)C3)nc12 (stereo not given)
  -12%	7%	-29%	u	-11%	9%	-0.3%	7%
- CCOc1ccc(S(=O)(=O)NCCC(=O)OCN2C(=O)c3ccccc3C2=O)cc1
  0%	10%&10%	-22%	-8%	4%	-10%	-7.3%	-58%
- CC(=O)C1CCC2C3CCC4CC(O)CCC4(C)C3C(O)CC12C (stereo not given)
  -7%	-10%	-8%	x	x	-1%	x	x
- COC(=O)c1cn(C(=O)c2ccc(C)cc2)c2ccccc12
  x	x	-2%	x	-1%	-11%	x	-2%
- O=C(NC1CCCCC1)c1ccc(N2CCCC2=O)cc1
  13%	5%	61%[activator]	-2%	0%	4%	9.1%	1%
- CCN(CC)c1ccc(NC(=O)Nc2cccc(C(C)=O)c2)cc1
  -11%	-20%	4%	3%	x	-13%	3.4%	-1%
- CCOc1ccc(NC(=O)c2cc3ccccc3cc2OC)cc1
  u	u	69%[activator]	x	-6%	-14%	x	-20%
- CC(Sc1nnc(C2CC2)n1C1CC1)C(=O)NCc1cccs1 (stereo not given)
  -4%	5%	-6%	x	-4%	-5%	x	x

Carrying on.
mol	Lassa entry inh	Marburg entry inh	StopGo reporter	Cruzain noTriton	SARS PLP yeast	RE007 growth inh	Cruzain inh Det	NS1 inh
COc1cccc(C(=O)Nc2ccc(C(=O)NCC3CCCO3)cc2)c1 (stereo not given)	13%[46.1 µM]	-20%[46.1 µM]	6%	x	x	0%	x	x
COc1cc(C2c3cc4c(cc3C(O)C3COCC23)OCO4)cc(OC)c1OC (stereo not given)	0%[46.1 µM]	u	-6%	x	x	-12%	x	x
CCOc1ccccc1NC(=O)NC1Cc2ccccc2C1	x	x	-1%	x	1%	14%	x	2%
Cc1ccc2[nH]c(-c3ccccc3)c(CN3CCCC3)c(=O)c2c1	-26%	-26%[46.1 µM]	22%	x	0%	3%	x	5%
O=C(COc1ccc(Cl)cc1)Nc1ccccc1CO	21%	-5%	3%	-14%	-10%	-23%	1.8%	-50%
CSc1nc(C)c(C(=O)C[n+]2ccccc2)cc1C#N	x	x	0%	x	0%	-9%	x	1%
CCN(C=NC1=NN(c2cccc(C(F)(F)F)c2)CC1)CC	-2%	u	43%[activator]	2%	-19%	x	-7.7%	-14%
CCCCN(C(=O)Nc1ccc(Cl)cc1)C1CCN(C(C)=O)CC1	u	6%&6%	-20%&-19%	-4%&5%	3%	-4%	-2.3%&2.1%	-7%

Part of the list above, with each value named:
Compound: Cc1ccc2[nH]c(-c3ccccc3)c(CN3CCCC3)c(=O)c2c1
  Lassa entry inh: -26%
  Marburg entry inh: -26%[46.1 µM]
  StopGo reporter: 22%
  Cruzain noTriton: x
  SARS PLP yeast: 0%
  RE007 growth inh: 3%
  Cruzain inh Det: x
  NS1 inh: 5%
Compound: CCN(C=NC1=NN(c2cccc(C(F)(F)F)c2)CC1)CC
  Lassa entry inh: -2%
  Marburg entry inh: u
  StopGo reporter: 43%[activator]
  Cruzain noTriton: 2%
  SARS PLP yeast: -19%
  RE007 growth inh: x
  Cruzain inh Det: -7.7%
  NS1 inh: -14%
Compound: CCCCN(C(=O)Nc1ccc(Cl)cc1)C1CCN(C(C)=O)CC1
  Lassa entry inh: u
  Marburg entry inh: 6%&6%
  StopGo reporter: -20%&-19%
  Cruzain noTriton: -4%&5%
  SARS PLP yeast: 3%
  RE007 growth inh: -4%
  Cruzain inh Det: -2.3%&2.1%
  NS1 inh: -7%
Compound: COc1cc(C2c3cc4c(cc3C(O)C3COCC23)OCO4)cc(OC)c1OC (stereo not given)
  Lassa entry inh: 0%[46.1 µM]
  Marburg entry inh: u
  StopGo reporter: -6%
  Cruzain noTriton: x
  SARS PLP yeast: x
  RE007 growth inh: -12%
  Cruzain inh Det: x
  NS1 inh: x

Next compounds follow:
mol	Lassa entry inh	Marburg entry inh	StopGo reporter	Cruzain noTriton	SARS PLP yeast	RE007 growth inh	Cruzain inh Det	NS1 inh
Cc1ccc(-n2nc(-c3cccs3)cc2C(=O)NCC2CCCO2)c(C)c1 (stereo not given)	u	u	-13%	4%	0%	-12%	-2.5%	-9%
CC(=O)N1CCOc2ccc(S(=O)(=O)N3CCC(C(=O)Nc4ccc(C)cc4C)CC3)cc21	x	x	-12%	x	1%	-11%	x	9%
O=C(N/N=C/c1ccc(OC(=O)c2ccccc2)c([N+](=O)[O-])c1)c1ccc(O)cc1	u	2%	-12%	-5%	-7%	2%	-11%	7%
O=C(CSc1nnc(-c2ccccc2Br)n1-c1ccccc1)c1ccc(F)cc1	u	0%[46.1 µM]	-10%	u	x	x	-4.8%	x
NS(=O)(=O)c1ccc(CCNC(=O)CCc2ccccc2)cc1	-3%	-16%[46.1 µM]	21%	x	x	12%	x	x
Cc1ccc(NC(=O)CN(C)C(=O)CCOc2ccccc2C)cc1	x	24%	4%	-8%	1%	2%	-2.6%	-2%
COc1ccc(S(=O)(=O)N2CCCCC2)cc1NC(=S)Nc1cccc(Cl)c1C	-4%	11%	9%	7%	14%	3%	-9.7%	27%
CC1CCC(C(C)C)C(OC(=O)CSc2nnc(N)s2)C1 (stereo not given)	6%	u	u	-9%	-17%	1%	-7.6%	-76%
COc1ccc(/C=C\c2cc(OC)c(OC)cc2CC[N+](C)(C)C)cc1OC	9%	0%	-5%	x	-3%	-15%	x	-2%
ONC(=Nc1cccc(C(F)(F)F)c1)c1cccnc1	x	x	-21%	x	0%	5%	x	4%
Cc1c(-c2ccc(F)cc2)[n+](=O)c2c(n1[O-])CCCCC2	26%	-28%	-19%	-5%	17%	6%	-3.2%	4%
O=C(CSc1nc(=O)[nH]c2c1CCCC2)Nc1cc(C(F)(F)F)ccc1Cl	2%[46.1 µM]	x	-19%	-9%	x	x	-0.2%	x
CCOC(=O)COc1ccc(S(=O)(=O)N2CCN(c3ccccc3)CC2)cc1	-16%	8%	-11%	u	-3%	6%	-3.5%	-60%
CCC(CC)NC(=O)c1ccc(NS(=O)(=O)c2ccc3[nH]c(=O)[nH]c3c2)cc1	x	x	-13%	x	7%	4%	x	4%
Cc1nn(C(C)C(=O)c2cccc(Cl)c2)c(C)c1[N+](=O)[O-] (stereo not given)	5%	3%[46.1 µM]	-12%	x	0%	4%	x	5%
CCOC(=O)N1CCN(S(=O)(=O)c2ccc(OC)c(C(=O)N3CCCCC3)c2)CC1	-16%	-17%[46.1 µM]	-30%	x	7%	23%	x	-17%
O=C(NCN1C(=O)C2C3C=CC(C3)C2C1=O)Nc1nncs1 (stereo not given)	25%	9%	8%	0%	-14%	6%	-1.0%	1%
CCNC(=O)CC1C(=O)N(c2ccc(F)cc2)C(=O)N1Cc1ccc(OC)cc1 (stereo not given)	6%	16%	47%[activator]	-10%	0%	9%	3.8%	2%
COc1ccc(CNc2n[nH]c(NCc3ccc(OC)c(OC)c3)n2)cc1OC	u	-1%[46.1 µM]	-7%	3%	13%	-7%	-0.6%	8%
CC(C)n1cnc2c(Nc3cccc(Cl)c3)nc(NCCCO)nc21	x	x	23%	x	-1%	-6%	x	0%
COc1cc2[nH]c(=O)n(CCC(=O)N3CC=C(c4ccccc4)CC3)c(=O)c2cc1OC	-11%	26%[46.1 µM]	9%	11%	-11%	8%	-3.5%	-5%

High-throughput results: PubChem BioAssay, National Center for Advancing Translational Sciences (NCATS)
